Screening results: PubChem, National Center for Advancing Translational Sciences (NCATS)
Cruzain inh noDet: blocks cruzain activity in detergent-free assay; purified cruzain, Z-FR-AMC fluorescence, no detergent; Potency, µM, inactives show max response, negative = inhibition, usual class: inhibitors; actives 2.3% (n = 200,000); AID 1476; P25779; active = well fitted curve in the direction sought with a large enough effect; inconclusive = small, poorly fitted or top-dose-only effect, or another doubt; inactive = no such curve, though single readings can be large; an effect the other way counts as inactive or inconclusive;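 also: plate controls were enzyme without inhibitor for no effect and buffer without enzyme for full effect; nearly all actives have a fitted effect of over 40% in size; top concentration of the series not given in the record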
Target sequence (P25779 123-467 limits assumed): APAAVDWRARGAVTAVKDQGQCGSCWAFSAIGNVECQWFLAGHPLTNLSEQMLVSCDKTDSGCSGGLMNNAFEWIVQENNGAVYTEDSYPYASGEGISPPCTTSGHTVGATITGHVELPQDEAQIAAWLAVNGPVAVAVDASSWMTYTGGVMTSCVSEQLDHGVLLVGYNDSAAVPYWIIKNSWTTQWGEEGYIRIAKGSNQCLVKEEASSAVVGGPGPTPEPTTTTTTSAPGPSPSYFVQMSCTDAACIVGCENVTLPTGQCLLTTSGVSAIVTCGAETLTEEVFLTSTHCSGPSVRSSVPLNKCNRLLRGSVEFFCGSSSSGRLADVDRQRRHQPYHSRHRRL
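Detergent-free condition (0.00005% Triton X-100) in acetate buffer pH 5.5 with DTT. 1.5 nM enzyme and compound were pre-mixed 15 min, then 2 uM Z-FR-AMC substrate added; reaction progress from fluorescence change between first and third reads (60 s).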
Cruzain inh Det: blocks cruzain activity in presence of Triton detergent; purified cruzain, Z-FR-AMC fluorescence, 0.01% Triton; Potency, µM, without a hit: max response, negative = inhibition, actives largely listed as inhibitors; actives 0.43% (n = 200,000); AID 1478; active = well fitted curve in the direction sought with a large enough effect; inconclusive = small, poorly fitted or top-dose-only effect, or another doubt; inactive = no such curve, though single readings can be large; an effect the other way counts as inactive or inconclusive;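 also: plate controls were neutral wells for no effect and buffer without enzyme for full effect; nearly all actives have a fitted effect of over 40% in size; top concentration of the series not given in the record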
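Purified cruzain (1.5 nM final) was preincubated with compounds for 15 min at room temperature in 100 mM sodium acetate pH 5.5, 5 mM DTT, 0.01% Triton X-100. Reaction started with 2 uM Z-FR-AMC; AMC fluorescence change over 60 s gave activity.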
NS1 inh: blocks influenza NS1 protein function; S. cerevisiae slowed by influenza A NS1, growth recovery by OD600; Potency, µM (titrated, usually from 46.1 µM), inactives show top-dose activity, positive = more growth; actives 0.4% (n = 270,000); also: actives are rising curves; nearly all actives have a fitted effect of over 50% in size
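A cell-based growth assay was used: compounds that relieve NS1-induced slow growth of budding yeast raise OD600. Assay medium was yeast nitrogen base with ammonium sulphate and -URA supplement, pH 6.0, with 2% galactose.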
RE007 growth inh: less growth of the S. pombe RE007 Vpr strain; S. pombe RE007 Vpr strain, BacTiter-Glo ATP luminescence, 24 h; control for the full effect not named in the record; Potency, µM (highest dose often 92.2 µM), inactives show top-dose activity change, negative = less growth; actives 0.21% (n = 360,000); active = well fitted falling curve with a large enough effect; inconclusive = small, poorly fitted or top-dose-only effect; inactive = no such curve, though single readings can be large or run the other way;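 also: % is scaled to controls: 0 for no effect and ±100 for the full control effect; nearly all actives have a fitted effect of over 50% in size; the assay follows cell death caused by Vpr and the record does not say whether a fall means rescue or toxicity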
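Fission yeast strain RE007, carrying one chromosomally integrated HIV-1 vpr copy, was seeded at OD 0.01 in PMG+AL medium with 23 nL pinned compound. After 24 h at 30 °C and 99% humidity, viability was read by BacTiter-Glo luminescence.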
2A StopGo: FMDV 2A StopGo reporter, luciferase signal; Potency, µM (titrated, usually from 57.9 µM), for the others: top-dose signal change, negative = less light; AID 1159524; actives 1.2% (n = 410,000); human cells with a luciferase reporter of 2A StopGo recoding; control for the full effect not named in the record; active = well fitted falling curve with a large enough effect; inconclusive = small, poorly fitted or top-dose-only effect; inactive = no such curve, though single readings can be large or run the other way; tested in HEK293T cells; also: % is scaled to controls: 0 for no effect and ±100 for the full control effect; nearly all actives have a fitted effect of over 45% in size; luciferase light after 4 h
MARV entry inh: Marburg virus entry inhibition. Potency, µM (doses to about 37.8 µM), for inactives: top-dose activity change, negative = inhibition, most hits filed as inhibitors. actives 1.8% (n = 300,000). Marburg virus pseudotyped entry inhibition, cell reporter; control for the full effect not named in the record; about a third of the inactives were read at about 46 µM; active = well fitted inhibition curve with a large enough effect; inconclusive = small, poorly fitted or top-dose-only effect, or effect the other way; inactive = flat fitted curve, though single readings scatter; tested in HEK293 cells; about a fifth of its hits are not listed in these tables; also: % is scaled to controls: 0 for no effect and ±100 for the full control effect; luciferase read-out
SARS PLP yeast: inhibitors of SARS-CoV papain-like protease in yeast. S. cerevisiae expressing SARS-CoV PLpro, growth rescue; control for the full effect not named in the record. actives 0.19% (n = 330,000). AID 485353. Potency, µM (top dose mostly 32.9 µM), for inactives: at the top dose activity, positive = growth rescue; also: 0% is about no effect; nearly all actives have a fitted effect of over 55% in size; growth read by luminescence after 48 h
LASV entry inh: Lassa virus entry inhibition; Lassa virus pseudotype entry inhibition, cell reporter; control for the full effect not named in the record; Potency, µM (highest dose often 37.9 µM), without a hit: at the highest dose activity change, negative = inhibition, usual class: inhibitors; actives 1.2% (n = 300,000); active means well fitted inhibition curve with a large enough effect; inconclusive means small, poorly fitted or top-dose-only effect, or effect the other way; inactive means flat fitted curve, though single readings scatter; tested in HEK293 cells; also: % is scaled to controls: 0 for no effect and ±100 for the full control effect; nearly all actives have a fitted effect of over 50% in size; luciferase read-out
* = called active by the depositor; ? = inconclusive; · = not tested or not shown; & = joins results of further samples; [ ] = another dose, or the depositor's remark. Unless noted, calls follow the shape of the dose curve; as a rule, active means well fitted rising curve with a large enough effect; inconclusive means small, poorly fitted or top-dose-only effect; inactive means no such curve, though single readings can be large or run the other way. Potency is read from the fitted curve at half-maximal effect.

No.	Structure	Cruzain inh noDet	Cruzain inh Det	NS1 inh	RE007 growth inh	2A StopGo	MARV entry inh	SARS PLP yeast	LASV entry inh
1	Cc1ccccc1C(=O)Nc1ccnn1C1CCN(C(C)Cc2ccccc2F)CC1 (stereo unspecified)	·	·	-6%	-8%	-28%	·	-3%	·
2	O=C(CNCc1ccccn1)Nc1ccc([N+](=O)[O-])cc1C(=O)Nc1ccccc1F	·	·	8%	10%	-29%	2%[46.1 µM]	-9%	-17%
3	N#CC1C=Cc2ccccc2N1C(=O)c1ccccc1 (stereo unspecified)	·	·	2%	0%	0%	·	0%	·
4	O=C(Nn1c(-c2ccccc2)nc2ccccc2c1=O)c1cccs1	-2%	-2.8%	-2%	7%	-14%	8%	-2%	14%
5	COc1ccc(-c2cn(CCC(=O)NCc3ccc(C)cc3)c(-c3ccncc3)n2)cc1	·	·	-14%	14%	15%	·	-1%	·
6	CCOc1ccc(S(=O)(=O)N2CCN=C2c2ccccc2)cc1	·	·	5%	-12%	-16%	?	1%	-15%
7	O=C(Nc1noc2ccccc12)c1c(F)cccc1F	-7%	-2.1%	·	·	-15%	?	·	?
8	CN(C)CCCN1C(=O)c2oc3ccc(Cl)cc3c(=O)c2C1c1cccnc1 (stereo unspecified)	6%	-5.5%	-12%	-4%	-4%	20%	-18%	-1%
9	Cc1ccc(/C=N/NC(=O)c2ccc(Br)o2)s1	-8%	-4.2%	-12%	31%	46%[activator]	?	-28%	1%
10	O=S(=O)(c1ccccc1)N1CN(c2ccc(F)cc2F)c2nc3ccccc3nc21	·	·	·	-12%	16%	?	2%	-13%
11	COCCn1c(SCC(=O)Nc2cc(C(C)(C)C)nn2-c2ccccc2)nc2ccccc2c1=O	14%	2.5%	7%	-5%	-8%	11%	-16%	-1%
12	CCOc1ccc(CCn2c3c(c(=O)[nH]c2=O)C(NC(=O)c2cccc(F)c2)(C(F)(F)F)C(=O)N3)cc1OCC (stereo unspecified)	1%	-3.2%	·	·	-11%	-1%[46.1 µM]	·	25%[46.1 µM]
13	CNC(=S)N1CCC(NC(=O)C23CC4CC(CC(C4)C2)C3)CC1	·	·	2%	11%	-9%	17%[46.1 µM]	0%	-3%
14	COc1nccnc1NS(=O)(=O)c1ccc(N/C=C2\CCCCC2=O)cc1	·	·	·	-1%	-5%	2%[46.1 µM]	2%	6%[46.1 µM]
15	Cc1onc(-c2ccccc2)c1C(=O)NC(=S)NNC(=O)c1cc(-c2ccc(F)cc2)n[nH]1	·	·	4%	6%	26%	-30%[46.1 µM]	26%	?
16	CCc1nn(CC(=O)NCCCc2ccccc2)c(=O)c2cc3c(OC)cccc3n12	-1%	-2.0%	3%	2%	-2%&-6%	-5%&-5%[46.1 µM]	1%	·
17	Cc1ccc(NC(=O)NNc2cccc(Cl)n2)cc1	6%	2.1%	4%	16%	52%[activator]	2%	5%	13%
18	CC(=O)Nc1ccc(/C=C/c2nc3ccccc3o2)cc1	·	·	-34%	1%	2%	·	-7%	·
19	O=C(/C=C/c1ccco1)NC(=S)Nc1ccccn1	-7%	-9.9%	-70%	-25%	56%[activator]	8%[46.1 µM]	-6%	16%
20	Cc1onc(-c2ccccc2)c1-c1ccnn1S(=O)(=O)c1ccc(Cl)cc1	·	·	-3%	-3%	-26%	11%[14.2 µM]	-3%	-11%
21	Cc1cc(=O)oc2cc(OCC(=O)Nc3ccc(S(=O)(=O)N(C)C)cc3)ccc12	·	·	3%	0%	-9%	·	0%	·
22	Cc1cc(-c2nnnn2-c2cc(Cl)cc(Cl)c2)no1	·	·	?	6%	-2%	3%[46.1 µM]	0%	-11%[46.1 µM]
23	CCCn1c(C)cc(C(=O)COC(=O)CN=C2NS(=O)(=O)c3ccccc32)c1C	-9%	0.3%	-7%	4%	16%	?	0%	-7%
24	Cc1nnc(SCC(=O)N2c3ccccc3CC2C)s1 (stereo unspecified)	5%	3.1%	-10%	3%	-7%	8%	-2%	24%
25	Cn1c(-c2ccc3ccccc3n2)[n+](C)c2ccccc21	·	·	0%	-14%	19%	-17%[46.1 µM]	0%	-14%
26	Cc1ccc2c(n1)sc1c(-c3ccc(Br)cc3)c(C#N)c(N)nc12	?	-6.2%	-5%	5%	?	·	-10%	?
27	COc1cc(C(C)=O)ccc1COc1ccc(C(=O)OC(C)C(=O)NC(N)=O)cc1OC (stereo unspecified)	26%	-11%	21%	-12%	-19%	7%	2%	1%
28	COc1cccc(CN2CC(C(=O)N3CCN(C(C)C)CC3)CCC2=O)c1 (stereo unspecified)	·	·	-5%	-4%	-10%	1%	3%	0%
29	CSc1cccc(NC(=O)Cn2c3ncccc3c(=O)n2-c2ccc(C)cc2)c1	?	-8.1%	·	·	-6%	·	·	-11%[46.1 µM]
30	O=S(=O)(Nc1cccc(-c2cn3ccsc3n2)c1)c1ccc(F)cc1	-12%	-4.7%	-1%	-3%	72%[activator]	14%	-5%	-9%
31	Cc1cc(N2CCOCC2)nc2ccc(NC(=O)C3CCC(C)CC3)cc12 (stereo unspecified)	5%	-3.2%	-5%	-8%	-18%	13%	1%	7%
32	N#CCCN1CCN(CCC#N)C1=S	·	·	·	3%	-9%	4%	·	4%[46.1 µM]
33	CC/C(=C\c1oc2cc3ccccc3cc2[n+]1CC)Nc1ccccc1	·	·	·	4%	22µM*	-12%[14.2 µM]	-11%	?
34	COc1ccc(-c2noc(N3CCC(C(=O)Nc4ccc(F)cc4Cl)CC3)n2)cc1	-13%	-0.8%	·	·	?	·	·	0%[46.1 µM]
35	Cc1ccc(OCc2cc(C(=O)N(C)Cc3nccn3C)no2)cc1C	·	·	6%	-11%	-9%	·	3%	·
36	Cc1ccc2cc(CCNC(=O)c3ccco3)c(=O)[nH]c2c1	-13%	-12%	-7%	9%	·	13%	-3%	25%
37	CCOC(=O)/C(=C/c1cn(C)c2ccccc12)NC(=O)c1ccccc1	·	·	0%	8%	-3%	5%[46.1 µM]	1%	-14%[46.1 µM]
38	O=C(Nc1ccccc1)Nc1ccc(Oc2cccnc2)nc1	·	·	2%	-8%	-8%	?	-1%	3%
39	Cc1nnc(SCC(=O)Nc2ccc3c(c2)OCCO3)s1	13%	1.7%	-6%	20%	16%	5%	-15%	-3%
40	CCCc1ccc2oc(C(=O)N3CCC(COC)C3)c(C)c2c1 (stereo unspecified)	·	·	-34%	0%	35%[activator]	1%	-1%	?
41	CC(=O)OCC1OC(n2c(S)c(C#N)c(-c3ccccc3)c(C#N)c2=O)C(OC(C)=O)C(OC(C)=O)C1OC(C)=O (stereo unspecified)	·	·	·	2%	-19%	2%	·	10%[46.1 µM]
42	Cc1c(C(=O)Nc2ccccn2)oc2ccc(Br)cc12	·	·	·	-18%	-9%	?	-3%	?
43	CCc1ccc(C2CC(=O)Nc3c2c(=O)nc2c(C)cccn32)cc1 (stereo unspecified)	-6%	2.2%	·	1%	-5%&13%	-1%&-1%	1%	13%
44	O=C(CN1CCCCCC1)Nc1ccc(Oc2ccccc2)cc1	·	·	·	-3%	-17%	?	-2%	-26%[46.1 µM]
45	COC(=O)c1sccc1NC(=O)c1c(C)noc1C	11%	5.4%	?	2%	-11%	?	10%	10%
46	CCCCCNCc1cccn1C	2%	4.9%	-1%	-5%	·	2%	0%	10%
47	CC(=O)c1ccc(NC(=O)CSc2nnc3ccc(-c4ccc(F)cc4)nn23)cc1	10%	-0.1%	·	·	0%	·	·	3%[46.1 µM]
48	COc1ccc(S(=O)(=O)N2CCCCC2)cc1NC(=O)c1cc(C)on1	·	·	·	4%	?	10%[46.1 µM]	-1%	-7%[46.1 µM]
49	COc1ccccc1N1CCN(CC(O)COCCOc2ccc(Br)cc2)CC1 (stereo unspecified)	15%	-2.4%	0%	1%	-24%	?	-20%	?
50	O=C(COC(=O)C1(c2ccccc2)CC1)NNC(=O)c1ccccc1	·	·	·	10%	-17%	0%[46.1 µM]	-7%	4%
51	CC(C)CN(CC(C)C)S(=O)(=O)N1CCC(C(=O)NC2CCCCCCC2)CC1	2%	1.0%	-6%	-3%	3%	-2%	2%	-14%
52	O=S(=O)(c1ccc(Oc2ccc(-c3nnco3)cc2)nc1)N1CCC(Cc2ccccc2)CC1	-20%	4.9%	2%	1%	-13%	-16%&-16%	1%	16%
53	CCOC(=O)N1CCN(C(=O)CS(=O)Cc2nc(-c3ccc(C)cc3)oc2C)CC1 (stereo unspecified)	-6%	-4.0%	5%	5%	-10%	-5%	12%	·
54	Cc1ccc(C)c(OCCCC(=O)Nc2nccs2)c1	-9%	-2.6%	4%	21%	-16%	-5%[46.1 µM]	·	-21%

Reprinted at random: 6 records from the list, in no set order.
No.	Structure	Cruzain inh noDet	Cruzain inh Det	NS1 inh	RE007 growth inh	2A StopGo	MARV entry inh	SARS PLP yeast	LASV entry inh
44	O=C(CN1CCCCCC1)Nc1ccc(Oc2ccccc2)cc1	·	·	·	-3%	-17%	?	-2%	-26%[46.1 µM]
43	CCc1ccc(C2CC(=O)Nc3c2c(=O)nc2c(C)cccn32)cc1 (stereo unspecified)	-6%	2.2%	·	1%	-5%&13%	-1%&-1%	1%	13%
45	COC(=O)c1sccc1NC(=O)c1c(C)noc1C	11%	5.4%	?	2%	-11%	?	10%	10%
42	Cc1c(C(=O)Nc2ccccn2)oc2ccc(Br)cc12	·	·	·	-18%	-9%	?	-3%	?
41	CC(=O)OCC1OC(n2c(S)c(C#N)c(-c3ccccc3)c(C#N)c2=O)C(OC(C)=O)C(OC(C)=O)C1OC(C)=O (stereo unspecified)	·	·	·	2%	-19%	2%	·	10%[46.1 µM]
54	Cc1ccc(C)c(OCCCC(=O)Nc2nccs2)c1	-9%	-2.6%	4%	21%	-16%	-5%[46.1 µM]	·	-21%

Rows are unselected (roughly 4.7% active in at least one column).
